High-throughput results from PubChem BioAssay.
KCNQ2 enhance – potentiators of rat KCNQ2 potassium channel; O88943; CHO-K1 KCNQ2, FluxOR thallium flux fluorescence; active compounds read high; B-score at 10 µM; 310,000 tested, 0.54% active;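 active means fluorescence ratio B-score at least 3 SD of library B-scores, with initial fluorescence B-score within 3 SD, cut at about 5.3 in these data; same plate scores as AID 2156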;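 further: B-score of peak minus minimum over baseline fluorescence ratio after K+ and Tl+ stimulus; positive B-score means potentiation of KCNQ2 with more thallium influx and brighter signal; only the inactives scoring about 0 or higher are listed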
Target sequence (O88943 whole entry, looked up): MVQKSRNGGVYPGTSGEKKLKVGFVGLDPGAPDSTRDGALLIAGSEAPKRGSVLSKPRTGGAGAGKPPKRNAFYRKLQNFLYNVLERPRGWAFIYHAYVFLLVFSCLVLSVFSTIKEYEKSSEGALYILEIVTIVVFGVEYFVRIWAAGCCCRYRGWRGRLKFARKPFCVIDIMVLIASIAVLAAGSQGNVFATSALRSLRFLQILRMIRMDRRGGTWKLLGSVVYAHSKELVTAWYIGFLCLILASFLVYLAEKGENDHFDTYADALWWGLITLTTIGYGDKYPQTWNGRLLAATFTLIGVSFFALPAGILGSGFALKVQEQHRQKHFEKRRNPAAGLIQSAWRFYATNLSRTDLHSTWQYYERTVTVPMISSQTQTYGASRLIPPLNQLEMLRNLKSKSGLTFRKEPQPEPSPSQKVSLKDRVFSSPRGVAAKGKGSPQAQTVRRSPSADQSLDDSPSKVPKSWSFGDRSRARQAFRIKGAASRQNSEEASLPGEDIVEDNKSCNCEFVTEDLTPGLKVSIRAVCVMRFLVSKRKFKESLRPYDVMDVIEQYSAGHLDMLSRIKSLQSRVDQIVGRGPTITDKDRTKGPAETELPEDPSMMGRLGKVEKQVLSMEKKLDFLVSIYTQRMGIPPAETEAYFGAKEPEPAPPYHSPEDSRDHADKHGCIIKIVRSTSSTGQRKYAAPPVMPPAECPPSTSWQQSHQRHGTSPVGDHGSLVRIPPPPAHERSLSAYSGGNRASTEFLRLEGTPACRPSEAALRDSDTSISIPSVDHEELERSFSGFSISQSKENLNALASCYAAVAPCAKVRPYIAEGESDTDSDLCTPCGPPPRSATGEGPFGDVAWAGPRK
KCNQ2 enhance baseline – further read-out of KCNQ2 enhance, marked with its call; B-score; compound at 10 µM; measured here: initial fluorescence intensity artifact check;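 brightness before thallium and not channel activity; 0 = typical well and far values either way flag optical interference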
Numbers without * were called inactive.

SMILES	KCNQ2 enhance	KCNQ2 enhance baseline
COc1cccc(/C=C2\SC(=S)N(NS(=O)(=O)c3ccccc3)C2=O)c1OC	2.7	-1.13
Cc1cc(=O)oc2cc(OC(C)C(=O)NCC3CCC(C(=O)O)CC3)ccc12 (centres undefined)	0.06	-0.28
Cc1cccc(Nc2nnc(SCC(=O)Nc3cccnc3Cl)s2)c1	1.25	-0.5
O=S(=O)(CCSc1nc2ccccc2o1)Cc1ccccc1	0.27	1.33
CCOCCCNC(=O)c1ccc(CS(=O)(=O)Cc2cccc(C)c2)o1	0.95	1.44
CSc1ncccc1C(=O)Nc1ccc(C)cn1	0.31	2.95
Cc1ccc(NC(=O)COC(=O)CNC(=O)C2CCCCC2)c(Br)c1	1	0.67
CCOc1ccc(S(=O)(=O)Nc2ccc(C(=O)NN)cc2)cc1	0.12	-1.23
CC(=O)c1cccc(NC(=O)COC(=O)c2n[nH]c3ccccc23)c1	0.93	-1.01
CCOC(=O)C1=C(C)NC(=S)NC1c1ccc(OCC(=O)N2CCCCCC2)cc1 (centres undefined)	1.25	0.09
CCCCn1c(=O)cc(N2CCOCC2)[nH]c1=O	2.66	0.35
CCOc1ccc(CC(=O)NCCS(=O)(=O)N2CCN(c3ccccc3)CC2)cc1	0.49	0.67
CCOC(=O)c1sc(NC(=O)c2ccc(Cl)s2)cc1C	0.56	-0.01
Cc1ccc2[nH]c(-c3ccccc3)c(CN(C)C)c(=O)c2c1	0.8	-0.54
Cc1nnc(SCc2nnc(-c3cccs3)o2)n1C	0.87	-0.05
Cc1cccc(NC(=O)CCn2cnnn2)c1	0.59	0.83
O=C(Nc1nccs1)c1c(O)c2cccc3c2n(c1=O)CCC3	0.53	1.7
Cc1cccc2c(C(=O)O)c3cccc(C)c3nc12	0.8	0.03
Cc1ccc(S(=O)(=O)NCCC(=O)OCC(=O)Nc2ccccc2Cl)cc1	0.04	-0.87
CCn1c(SCC(=O)Nc2cc(C)on2)nnc1-c1ccccc1	0.08	1.29
O=C1c2ccccc2NC(c2cccs2)N1NS(=O)(=O)c1ccccc1 (centres undefined)	0.87	-1.26
CCCC(=O)n1nc(-c2ccccc2)nc1SC	0.39	-2.54
Cc1ccc(C2=NN(C(=O)CCl)C(c3cccs3)C2)o1 (centres undefined)	0.15	1.48
N=c1n(CCN2CCCCC2)c2ccccc2n1CC(=O)c1cccc([N+](=O)[O-])c1	0.89	1.58
COc1cc2[nH]c(C(=O)N3CCN(c4ccccc4F)CC3)cc2c(OC)c1OC	1.71	-0.83

(listing goes on)
SMILES	KCNQ2 enhance	KCNQ2 enhance baseline
CCOc1cc(CN2CCN(S(=O)(=O)Cc3ccccc3)CC2)ccc1OC	0.17	-0.42
Nc1ccc(-c2ncc(-c3ccccc3)o2)cc1	0.54	3.54
CCCNC(=O)CC(NS(=O)(=O)c1ccc(OC)cc1)c1ccco1 (centres undefined)	0.76	-0.04
Cc1ccc(-c2c(C(=O)N/N=C/c3cccc(Cl)c3)nnn2-c2nonc2N)cc1	0.34	0.78
CC(=O)Nc1ccc(-n2cc(-c3ccccc3)[nH]c2=S)cc1	0.51	1.52
Cc1nn(-c2c(Cl)cc(Cl)cc2Cl)c(=O)c2ccccc12	0.05	0.63
CCOC(=O)C1=NN(c2ccccc2)C2(S1)SC(C(C)=O)=C(C)N2c1ccccc1 (centres undefined)	0.07	1
CC1CC(=O)c2cnc(Nc3ccccc3)nc2C1 (centres undefined)	0.79	1.25
O=C(Cc1sc(-c2ccccc2)nc1-c1ccccc1)Nc1ccccc1	0.16	-1.15
COc1ccc(Br)cc1CN(C)C(=O)c1cnc(C)cn1	1.43	-0.14
COc1ccc(-c2ccc3nnc(SCC(=O)N4CCCC4)n3n2)cc1	1.81	-0.46
COc1cccc(C2=NOC(C(=O)Nc3cc(C)on3)C2)c1 (centres undefined)	1.43	0.59
N=C1S/C(=C\c2ccc(-c3cccc(Cl)c3)o2)C(=O)N1c1nccs1	6.54*	0.35*
CCCc1cc(=O)oc2c(C)c(OCC(=O)Nc3ccccn3)ccc12	1.04	-0.01
CC(C)c1ccccc1NC(=O)CCCC(=O)O	0.07	-1.2
COc1ccc(CN2C3CCCC2CC(NC(=O)Nc2ccccc2)C3)cc1 (centres undefined)	0.9	-2.7
S=C(NCCc1c[nH]c2ccccc12)NC1CCCCC1	0.75	2.61
Cc1nn(-c2ccccc2)c(Cl)c1/C=N\NC(=O)c1cnccn1	0.03	0.1
COc1ccc(S(=O)(=O)N2CCC(NC(=O)c3ccccc3)CC2)cc1	0.27	0.3
COc1ccc(C2C(C(=O)NCCCN3CCOCC3)c3ccccc3C(=O)N2c2ccc(OC)cc2)cc1 (centres undefined)	0.27	0.59
CC(=O)Nc1ccc(-c2cn3c(n2)SCC3)cc1	0.31	-0.75
O=C(COc1ccc2ccccc2c1)N1CCN(C(=O)c2cccs2)CC1	0.01	-1.34
Cc1ccc(NS(=O)(=O)c2cc(C(=O)N3CCN(C)CC3)ccc2C)cc1C	2.24	0.92
COc1ccc(-n2nc(C(=O)N3CCN(Cc4ccc5c(c4)OCO5)CC3)c3ccccc3c2=O)cc1	0.51	-0.63
COCCNC(=O)c1onc(CSc2cc(C)cc(C)c2)c1C(=O)NCCOC	1.41	-0.01

Additional records follow:
SMILES	KCNQ2 enhance	KCNQ2 enhance baseline
COc1ccc(C(=O)NCCS(=O)(=O)NCc2cccs2)cc1	0.97	-0.31
CCOc1ccc2[nH]c(=O)c(CN(Cc3ccco3)C(CC)c3nnnn3Cc3ccccc3)cc2c1 (centres undefined)	1.69	-0.47
O=C(Nc1ncc2c(n1)CC(c1cccc(Cl)c1)CC2=O)c1ccco1 (centres undefined)	1.36	0.02
CC(=O)Nc1ccc(NC(=O)C(C)n2c3ccccc3c3nc(=O)cc(C)n32)cc1 (centres undefined)	1.56	1.12
Cn1c(=O)n(C)c2cc([N+](=O)[O-])c(N3CCN(C(=O)c4ccccc4Cl)CC3)cc21	0.67	-0.33
CCc1c(C)c2ccc(OCC(=O)NCC3CCC(C(=O)O)CC3)cc2oc1=O (centres undefined)	0.55	-2.02
C/C(=N/N=C1\SCC(=O)N1c1ccccc1)c1ccc(C)cc1	0.97	0.63
COc1cccc2[nH]c3c(=O)n(CCCN4CCOCC4)cnc3c12	1.14	-0.52
COCCCNC(=O)c1ccc(Cn2c(=O)c3ccccc3n(Cc3ccccc3C#N)c2=O)cc1	1.44	-0.08
Cc1c(C)n(CCN(C)C)c2ccc(C(=O)OCCN(C)C)cc12	2.14	0
C=CCn1c(O)c(C2=c3ccccc3=NC2=O)sc1=Nc1ccc(O)cc1	0.03	-0.79
O=c1[nH]cnc(O)c1C(c1ccc(F)cc1)c1c(O)nc[nH]c1=O	0.02	0.94
Cc1occc1-c1nnc(SCC(=O)Nc2ccc(F)cc2)n1Cc1ccccc1	0.12	-1.06
Cc1c(Br)c([N+](=O)[O-])nn1CC(=O)N1CCN(Cc2ccccc2)CC1	0.94	-1.31
O=C1CCC(C(=O)N2CCC(O)(c3ccccc3)CC2)CN1CCc1ccccc1 (centres undefined)	0.29	-0.09
N#CC1=C(N)N(c2ccccc2)C(=O)C1	0.1	1.45
COc1ccc(CSc2nnc(N)s2)cc1F	0.72	0.27
Cc1[nH]c2ccccc2c1C(=O)COC(=O)C1CCC1	0.74	-0.91
O=C(NCN1C(=O)C2C3C=CC(C3)C2C1=O)Nc1nccs1 (centres undefined)	0.98	2.46
CCOC(=O)C1=C(C)NC(SCC(=O)Nc2nc(C)cs2)=C(C#N)C1c1cccs1 (centres undefined)	0.84	-1.43
COc1ccc(C(=O)C2CCCN(C(=O)c3cccc(N(C)C)c3)C2)cc1OC (centres undefined)	0.8	-0.3
CCCCNC(=O)c1cc2nc3c(c(C(F)(F)F)n2n1)CCc1ccccc1-3	0.72	-2.04
COc1ccc(COC(=O)Oc2ccc(CNC(C)=O)cc2OC)c([N+](=O)[O-])c1	1.38	-0.23
CC(C)CC(NC(=O)C1CCC(C)CC1)C(=O)NCc1cccnc1 (centres undefined)	0.61	-0.82
Cn1nnc(NC(=O)C(c2ccccc2)c2ccccc2)n1	0.05	-0.76

An excerpt of these results, with each value named.
COc1ccc(C(=O)NCCS(=O)(=O)NCc2cccs2)cc1
- KCNQ2 enhance: 0.97
- KCNQ2 enhance baseline: -0.31
CCOc1ccc2[nH]c(=O)c(CN(Cc3ccco3)C(CC)c3nnnn3Cc3ccccc3)cc2c1 (centres undefined)
- KCNQ2 enhance: 1.69
- KCNQ2 enhance baseline: -0.47
O=C(Nc1ncc2c(n1)CC(c1cccc(Cl)c1)CC2=O)c1ccco1 (centres undefined)
- KCNQ2 enhance: 1.36
- KCNQ2 enhance baseline: 0.02
CC(=O)Nc1ccc(NC(=O)C(C)n2c3ccccc3c3nc(=O)cc(C)n32)cc1 (centres undefined)
- KCNQ2 enhance: 1.56
- KCNQ2 enhance baseline: 1.12

(continued)
SMILES	KCNQ2 enhance	KCNQ2 enhance baseline
O=c1ccn(Cc2ccccc2)c2ccccc12	1.06	-0.47
Cc1sc2ncn(CC(=O)NCC(=O)N(C)C3CCCCC3)c(=O)c2c1C	1.72	-1.2
Cc1cc(OCC(=O)NCc2ccccn2)cc(C)c1Br	0.94	-0.67
COc1ccc(OC)c(CNC(=O)CCc2nc(-c3cccs3)no2)c1	0.07	0.04
COc1ccc(C(=O)N2CCN(CC(=O)N3CCOCC3)CC2)cc1	0.3	0.68
CC1(C)Cc2c(cnn2-c2ccc(F)cc2)C(NC(=O)CCN2CCCCC2=O)C1 (centres undefined)	0.07	-0.64
CCCn1c(-c2cccc(F)c2)nc2c1c(=O)[nH]c(=O)n2Cc1ccccc1	1.42	0.27
CCOC(=O)c1ccc(Nc2nc(-c3cccnc3)nc3ccccc23)cc1	1.14	0.35
COCc1ccccc1Cn1cnc2c1c(=O)n(C)c(=O)n2C	1.43	0.18
COc1cccc(C2c3[nH]c4ccccc4c3C[C@H]3C(=O)N(c4ccccc4C(=O)N4CCC[C@H]4C(=O)O)C(=O)N23)c1 (some centres undefined)	1.04	0.19
Cc1ccc(Nc2ncnc(-n3cccc3)n2)cc1Cl	0.47	0.23
CC(NC(=O)C(=O)NCCc1c[nH]c2ccccc12)c1ccccc1 (centres undefined)	0.09	-0.38
OC(COc1ccc2ccccc2c1)CN1CCOCC1 (centres undefined)	0.42	1.31
CCc1ccc(NC(=O)C2(c3ccccc3)CC2(Cl)Cl)cc1 (centres undefined)	2.67	-0.75
COc1ccc(CNC(=O)CNS(=O)(=O)c2cccc(C#N)c2)cc1OC	0.83	-1.35
COc1ccc(NC(=S)N(CCCN2CCOCC2)C(C)c2cc3ccccc3o2)cc1 (centres undefined)	0.39	-0.22
O=C(CSc1nnc(COc2ccccc2)o1)N1CCN(c2ccccc2)CC1	0.26	1.86
Cn1cc(C(=O)O)c(-c2ccc3c(c2)OCCCO3)n1	0.16	-0.68
COc1cnn(-c2ccc(F)cc2)c(=O)c1Br	0.73	0.78
CCCCCCCN1CCC(=O)N(CCO)CC1	0.69	-0.01
COc1ccccc1C(=O)COC(=O)c1ccccc1O	0.18	-0.8
CS(=O)(=O)c1ccccc1C(=O)Nc1nc2ccccc2[nH]1	1.04	0.39
N/C(Cc1ccc([N+](=O)[O-])cc1)=N\OC(=O)c1ccc(Br)cc1	3.11	-1.37
CC(C)c1ccc(NC2CCCN(C(=O)CCc3cn[nH]c3)C2)cc1 (centres undefined)	0.69	-0.33
Nc1nnc(SCc2nnc(-c3ccccc3)o2)s1	0.13	0.07

Brought forward from above: 6 compounds, then new ones.
SMILES	KCNQ2 enhance	KCNQ2 enhance baseline
CCCCCCCN1CCC(=O)N(CCO)CC1	0.69	-0.01
COc1ccccc1C(=O)COC(=O)c1ccccc1O	0.18	-0.8
CS(=O)(=O)c1ccccc1C(=O)Nc1nc2ccccc2[nH]1	1.04	0.39
N/C(Cc1ccc([N+](=O)[O-])cc1)=N\OC(=O)c1ccc(Br)cc1	3.11	-1.37
CC(C)c1ccc(NC2CCCN(C(=O)CCc3cn[nH]c3)C2)cc1 (centres undefined)	0.69	-0.33
Nc1nnc(SCc2nnc(-c3ccccc3)o2)s1	0.13	0.07
COc1ccc(-c2csc(N3CCN(c4cc5c(cc4Cl)nc(-c4ccncc4)n5CCOCCO)CC3)n2)cc1	2.44	-0.62
CCC(=O)N1c2ccc(S(=O)(=O)CCC(=O)Nc3ccc(OC)cc3OC)cc2CC1C (centres undefined)	1.94	0.09
CO/N=C(\C(=O)O)c1csc(NN=C(C)C)n1	0.13	0.3
O=C(Nc1ccc2c(c1)OCO2)C1CCCCN1S(=O)(=O)c1ccc(F)cc1 (centres undefined)	1.2	-1.53
O=C(Cc1cccs1)Nc1nnc(Cc2ccc(F)cc2)s1	1.8	-2.26
Cc1cc(C)nc(N(C#N)CC(=O)c2ccccc2)n1	1.31	-1.44
CO/N=C(\CCC(=O)O)c1cccs1	1.15	-1.37
COC(=O)CSc1nc2nc(-c3cccs3)cc(C(F)(F)F)c2c(=O)[nH]1	0.25	-0.59
Cc1c(C(=O)Nc2ccccc2F)cnn1-c1ccccc1	0.62	-0.76
CCCSc1nnc(Nc2ccccc2C)s1	0.42	1.67
COc1cc(NC(=S)NCc2cccnc2)cc(OC)c1OC	0.03	2.1
COc1ccc(C(=O)OC(C)CN2CCOCC2)cc1OC (centres undefined)	1.36	1.79
OC(CN1CCCCCC1)CN(c1ccccc1)c1ccccc1 (centres undefined)	2.72	-0.39
O=C(NCC1CCCO1)c1ccccc1 (centres undefined)	1.98	-0.51
COc1cccc2oc3ccc(C#CC4(N)CCCCC4)cc3c(=O)c12	0.24	1.03
COc1ccc(CN2CCCC(CO)(Cc3ccc(F)cc3)C2)c(OC)c1OC (centres undefined)	0.96	-0.34
CC(=O)c1ccc(Nc2nc(C)cc(C)n2)cc1	0.37	0.07

Some of the compounds tested, so the mix of outcomes need not match the whole.
